MLL AF4-AF9 inh: inhibitors of AF4 peptide binding to AF9, primary screen, biochemical, AlphaScreen, biotin-AF4 peptide, FLAG-AF9, single point; Protein AF-9 (Homo sapiens), P42568; inhibition, % at 10 µM; actives 0.47% (n = 350,000); AID 651704, 2012;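 active means every replicate reaching a set inhibition limit, whatever the replicate mean, cut at about 25% in these data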;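 further: 0% = plate neutral control median and 100% = total signal loss; the record names both 10 and 1 µM as test concentration; the first replicate is given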
Target sequence (P42568 whole entry, looked up): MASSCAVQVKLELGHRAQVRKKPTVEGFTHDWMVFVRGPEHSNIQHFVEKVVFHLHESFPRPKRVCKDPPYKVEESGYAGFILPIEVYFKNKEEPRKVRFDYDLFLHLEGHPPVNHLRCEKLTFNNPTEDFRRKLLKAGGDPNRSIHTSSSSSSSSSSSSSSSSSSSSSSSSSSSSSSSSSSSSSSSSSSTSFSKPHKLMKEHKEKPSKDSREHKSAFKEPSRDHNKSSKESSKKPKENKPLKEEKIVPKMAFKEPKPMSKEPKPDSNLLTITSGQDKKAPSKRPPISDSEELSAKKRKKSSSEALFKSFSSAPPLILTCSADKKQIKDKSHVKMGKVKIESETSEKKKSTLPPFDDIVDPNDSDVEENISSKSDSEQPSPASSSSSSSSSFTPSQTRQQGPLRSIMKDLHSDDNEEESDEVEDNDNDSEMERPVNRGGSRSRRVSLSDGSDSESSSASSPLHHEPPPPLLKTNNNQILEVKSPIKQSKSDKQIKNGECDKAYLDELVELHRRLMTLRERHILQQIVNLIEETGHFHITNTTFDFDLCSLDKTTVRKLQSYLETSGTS
FGF22 binding: binders of human FGF22 protein, primary screen, FGF22 synaptogenesis inhibitor project, biophysical, thermal shift, single point; recombinant FGF22 thermal shift, SYPRO orange fluorescence; percent of sucrose octasulfate shift, DMSO zero; actives 1.5% (n = 340,000); Fibroblast growth factor 22 (Homo sapiens), Q9HCT0; calls only at 9.99 µM; AID 651658, 2012;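 active means melting point raised past a set limit in the mean and every replicate; three in four hits are not shown here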
Target sequence (Q9HCT0 whole entry, looked up): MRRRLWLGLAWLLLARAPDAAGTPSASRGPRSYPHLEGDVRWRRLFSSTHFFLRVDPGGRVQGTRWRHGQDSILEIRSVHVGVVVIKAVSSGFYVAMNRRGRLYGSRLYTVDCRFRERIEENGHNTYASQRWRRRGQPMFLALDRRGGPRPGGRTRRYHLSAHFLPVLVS
Ecoli rRNA inh: reduced GFP signal of wild-type E. coli, primary screen, bacterial rRNA inhibitor project, GFP/RFP fluorescence, OD600, single point; actives 1.6% (n = 350,000); E. coli WT GFP vs humanized-ribosome RFP mutants, 24 h; active compounds read low; DMSO median 0, no signal -100; GFP signal change (wild-type ribosome), % (test concentration not listed); AID 720706, 2013;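 active means significant combined selectivity score with lowered wild-type GFP, culture density cut under 30%, mutant RFP and density less affected; inactive means any of these conditions unmet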; further: one replicate is shown; some compounds called inactive have numbers as strong as hits
Ecoli rRNA inh OD600: further read-out of Ecoli rRNA inh, marked with its call; OD600 change, %; measured here: OD600 growth;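 optical density of the mix in the first replicate; 0 = DMSO median and -100 = no signal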
Ecoli rRNA inh RFP: second read-out of Ecoli rRNA inh, no call of its own (marks repeat the call); RFP signal change, %; measured here: RFP humanized mutant strains;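 first replicate; 0 = DMSO median and -100 = no signal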
* marks the source's active call; other numbers are inactive results; i = inactive; / = no result given; & = joins results of further samples.

SMILES,MLL AF4-AF9 inh,FGF22 binding,Ecoli rRNA inh,Ecoli rRNA inh OD600,Ecoli rRNA inh RFP
COCC(=O)N(C)C[C@@H]1Oc2cc(-c3cccc(F)c3)ccc2S(=O)(=O)N([C@H](C)CO)C[C@@H]1C,-2.0,i,-5,4,-1.2
COc1ccc(NC(=O)Nc2cccc3c2O[C@H](CN(C)C(=O)Nc2ccc4c(c2)OCO4)[C@H](C)CN([C@@H](C)CO)C3=O)cc1,3.0,i,-42,-75,-4.8
Cc1ccccc1-c1ccc([C@H]2[C@H]3CN(S(C)(=O)=O)CCCCN3[C@H]2CO)cc1,21,i,2,-6,2.7
O=C(CN1CCOCC1)NCC[C@H]1CC[C@H](NC(=O)Cc2ccccn2)[C@H](CO)O1,6.8,i,2,0,0.3
C[C@H]1CN([C@@H](C)CO)C(=O)Cc2cc(NS(=O)(=O)c3ccc(Cl)cc3)ccc2O[C@@H]1CN(C)S(=O)(=O)c1cccs1,1.6,i,-4,-8,2.4
C[C@H]1CCCCO[C@H](CN(C)CC2CCCCC2)[C@@H](C)CN([C@@H](C)CO)C(=O)c2cc(NS(=O)(=O)c3ccc(F)cc3)ccc2O1,2.1,i,2,-24,25
O=c1c2ccccc2sn1-c1ccc(Cl)cc1,-7.8,i,-43,-66,-10
C[C@@H]1CN([C@@H](C)CO)C(=O)c2cc(NC(=O)Cn3cnnn3)ccc2O[C@@H]1CN(C)C(=O)NC1CCCCC1,-2.8,i,5,11,1.7
O=C(O)C[C@@H]1C[C@H]2c3cc(NC(=O)Nc4ccc(F)cc4)ccc3O[C@H]2[C@@H](CO)O1,-4.9,i,2,-6,-1.8
COCC#Cc1ccc([C@@H]2[C@H]3CN(C(=O)C4CCCCC4)CC(=O)N3[C@H]2CO)cc1,-0.1,i,3,9,-3.3
COc1ccc(NC(=O)N(C)C[C@H]2OCc3cn(nn3)CCCC(=O)N([C@@H](C)CO)C[C@@H]2C)cc1,-3.1&0.4&3.2,i,4&0,15&-2,-6.4&-1.2
C[C@H]1CN([C@@H](C)CO)C(=O)Cc2cc(NS(=O)(=O)c3cn(C)cn3)ccc2O[C@H]1CN(C)C,-1.2,i,2,9,-1.5
COc1ccc(S(=O)(=O)N(C)C[C@H]2OCCCC[C@@H](C)Oc3ccc(NC(=O)Nc4ccc5c(c4)OCO5)cc3C(=O)N([C@@H](C)CO)C[C@H]2C)cc1,3.3,i,-2,4,4.6
COc1ccc2c3c([nH]c2c1)[C@H](CO)N(C(=O)C1CCCCC1)CC31CCN(Cc2nccs2)CC1,-2.0,i,-1,-2,0.1
C[C@H]1CN([C@@H](C)CO)C(=O)c2cccc(NC(=O)c3ccc(-c4nccs4)cc3)c2O[C@H]1CN(C)S(=O)(=O)c1cn(C)cn1,-0.4,i,-7,-11,1.1
CS(=O)(=O)Nc1ccc2c(c1)[C@H]1C[C@@H](CC(=O)NC3CCCC3)O[C@H](CO)[C@H]1O2,3.7,i,10,7,-1.1
C[C@@H]1CCCCO[C@@H](CN(C)C(=O)Nc2ccc3c(c2)OCO3)[C@@H](C)CN([C@H](C)CO)C(=O)c2cc(NC(=O)C3CCCCC3)ccc2O1,0.3,i,3,1,-2.5
CCOC(=O)C1=C(c2ccccc2)c2ccc(OC)cc2N(S(=O)(=O)C(F)(F)F)C1C(=O)OCC (centres undefined),4.4,i,-21,-29,4.4
COCC(=O)N[C@H]1CC[C@@H](CC(=O)NCc2ccccc2OC)O[C@@H]1CO,-10&0.1,i,1&9,12&12,-1.9&-0.9
CCNC(=O)[C@@H]1[C@@H](CO)[C@@H]2Cn3c(ccc(/C=C/c4ccccc4)c3=O)[C@H]1N2C(=O)C1CCC1,-18,i,0,-6,0.0

Ordered by SMILES length (largest number first): part of the list above
SMILES,MLL AF4-AF9 inh,FGF22 binding,Ecoli rRNA inh,Ecoli rRNA inh OD600,Ecoli rRNA inh RFP
COc1ccc(S(=O)(=O)N(C)C[C@H]2OCCCC[C@@H](C)Oc3ccc(NC(=O)Nc4ccc5c(c4)OCO5)cc3C(=O)N([C@@H](C)CO)C[C@H]2C)cc1,3.3,i,-2,4,4.6
C[C@@H]1CCCCO[C@@H](CN(C)C(=O)Nc2ccc3c(c2)OCO3)[C@@H](C)CN([C@H](C)CO)C(=O)c2cc(NC(=O)C3CCCCC3)ccc2O1,0.3,i,3,1,-2.5
C[C@H]1CCCCO[C@H](CN(C)CC2CCCCC2)[C@@H](C)CN([C@@H](C)CO)C(=O)c2cc(NS(=O)(=O)c3ccc(F)cc3)ccc2O1,2.1,i,2,-24,25
COc1ccc(NC(=O)N(C)C[C@H]2OCc3cn(nn3)CCCC(=O)N([C@@H](C)CO)C[C@@H]2C)cc1,-3.1&0.4&3.2,i,4&0,15&-2,-6.4&-1.2
Cc1ccccc1-c1ccc([C@H]2[C@H]3CN(S(C)(=O)=O)CCCCN3[C@H]2CO)cc1,21,i,2,-6,2.7
O=C(CN1CCOCC1)NCC[C@H]1CC[C@H](NC(=O)Cc2ccccn2)[C@H](CO)O1,6.8,i,2,0,0.3

Next structures
SMILES,MLL AF4-AF9 inh,FGF22 binding,Ecoli rRNA inh,Ecoli rRNA inh OD600,Ecoli rRNA inh RFP
COCC(=O)N1CC2(CN(Cc3ccc(OC)cc3)C2)c2c([nH]c3cc(OC)ccc23)[C@@H]1CO,-1.0,i,-1,5,1.0
CO[C@H]1CN(C)C(=O)c2cc(NC(=O)Nc3cc(F)ccc3F)ccc2OC[C@H](C)N(C)C[C@@H]1C,1.5,i,-1,0,0.9
Cc1ccc(-c2ccc([C@@H]3[C@H](CO)N4CCCCN(S(=O)(=O)c5ccccc5C)C[C@@H]34)cc2)cc1,3.3,i,-45,-38,14
O=C(Cc1ccncc1)Nc1ccc2c(c1)[C@@H]1C[C@H](CC(=O)NC3CCCCC3)O[C@H](CO)[C@@H]1O2,0.3,i,-4,-6,0.9
N#C[C@@H]1[C@@H](c2ccccc2-c2ccccc2F)[C@@H](CO)N1C(=O)C1CC1,-1.0,i,-3,6,-3.7
C[C@@H]1CN([C@H](C)CO)S(=O)(=O)c2ccc(-c3cccc(C#N)c3)cc2O[C@H]1CN(C)Cc1cccc(F)c1,-2.9,i,-3,-2,0.8
CCCCNC(=O)C[C@@H]1C[C@@]2(C(=O)OC)CCCCC=C2N(Cc2cccc3ccccc23)C1=O,3.2,i,-13,-12,3.4
C/C=C/c1cnc2c(c1)C(=O)N([C@@H](C)CO)C[C@H](C)[C@@H](CN(C)C(=O)CN1CCOCC1)O2,-1.2,i,3,7,0.8
O=C(c1cccnc1)N1C[C@H]2[C@@H](c3ccccc31)[C@H](CO)N2C(=O)C1CC1,-1.0,i,3,3,-0.8
COc1ccccc1-c1cc(NC=O)c2ncc(-c3ccc(S(C)(=O)=O)cc3)n2c1,-2.1,i,-5,-16,-0.1
CC(C)NC(=O)N(C)C[C@@H]1Oc2ccc(NC(=O)Nc3ccc(C(F)(F)F)cc3)cc2C(=O)N([C@H](C)CO)C[C@@H]1C,1.4,i,-7,-13,-0.4
Cc1ccc(-c2cnc3c(c2)C(=O)N([C@H](C)CO)C[C@H](C)[C@H](CN(C)C(=O)c2ccncc2)O3)cc1,-2.3,i,-2,2,0.1
Cc1noc(C)c1S(=O)(=O)Nc1ccc2c(c1)C(=O)N([C@@H](C)CO)C[C@H](C)[C@@H](CN(C)C(=O)C1CCCCC1)OCCCC[C@H](C)O2,-1.3,i,-3,-9,0.5
COCC#Cc1cnc2c(c1)C(=O)N([C@H](C)CO)C[C@@H](C)[C@H](CN(C)C(=O)Nc1ccccc1F)O2,-1.1,i,-1,1,-1.8
CCC(=O)N1CC2(C1)[C@H](c1ccccc1)[C@H](CO)N2CC1CCOCC1,-3.0,i,5,16,-3.7
COC(=O)C1=C(C)N(C)C(=NCC2CC2)NC1c1ccc(Cl)cc1 (centres undefined),-3.0,/,16,-16,-0.2
COc1ccccc1N1CCN(C2C(=O)Nc3ccccc3-n3nnnc32)CC1 (centres undefined),0.6,i,-3,6,-1.0
CNC(=O)C[C@H]1C(=O)N(CCc2ccccc2)C[C@@H]1c1ccc(OC)cc1,-0.2,i,17,8,3.4
Cc1ccc(CN(C)C[C@@H]2OCc3cn(nn3)CCCC(=O)N([C@H](C)CO)C[C@@H]2C)cc1,0.2,i,1,6,-2.3
O=C(C[C@@H]1C[C@@H]2c3cc(NC(=O)Cc4ccncc4)ccc3O[C@@H]2[C@@H](CO)O1)NCC1CC1,-1.0,i,3,15,-2.3
CCCNC(=O)N1CC2(C1)[C@@H](c1ccccc1)[C@@H](CO)N2C(=O)C1CCCCC1,-1.1,i,0,5,-0.7
CCC(=O)N[C@@H]1CC[C@@H](CC(=O)NCCN2CCCCC2)O[C@@H]1CO,-1.6,i,5,8,-1.4
C[C@@H]1CN([C@@H](C)CO)S(=O)(=O)c2ccc(-c3cncnc3)cc2O[C@@H]1CN(C)Cc1ccccc1,-4.4,i,1,12,-0.1
CC(=O)N(C)C[C@H]1Oc2ncc(C3=CCCC3)cc2C(=O)N([C@H](C)CO)C[C@@H]1C,-4.2,i,-1,2,-4.4
C[C@@H]1CN([C@H](C)CO)C(=O)Cc2cc(NS(=O)(=O)c3ccccc3)ccc2O[C@H]1CN(C)Cc1ccc(C(F)(F)F)cc1,-7.8,i,0,-7,2.3
C[C@@H]1CN([C@H](C)CO)C(=O)c2cc(C3=CCCCC3)cnc2O[C@@H]1CN(C)C(=O)NC1CCCC1,-8.6,i,4,8,-5.0
N#C[C@@H]1N[C@@H](CO)[C@@H]1c1ccc(C#Cc2ccccc2F)cc1,-0.9,i,-3,-3,-3.0
C[C@@H]1CN([C@@H](C)CO)C(=O)c2cccc(NC(=O)c3cnccn3)c2O[C@@H]1CN(C)S(=O)(=O)c1ccc(F)cc1,-4.3,i,-1,4,-0.7
COc1ccc2c3c([nH]c2c1)[C@@H](CO)N(CC1CCCC1)CC31CN(C)C1,14,i,-4,-6,0.6
Cc1noc(C)c1NC(=O)Nc1ccc2c(c1)CC(=O)N([C@H](C)CO)C[C@@H](C)[C@@H](CN(C)C(=O)Nc1cccc3ccccc13)O2,0.0,i,4,7,2.6
O=C1c2cccc3c2C2(O)c4c1cccc4C(=O)c1cccc(c12)C3=O,-63,i,1,13,-5.0
CN(C)C(=O)C[C@H]1CC[C@H](NC(=O)NC2CCCC2)[C@@H](CO)O1,-2.4,i,0,0,-2.1
Cc1ccc(-c2ccc3c(c2)O[C@H](CN(C)C(=O)C2CCC2)[C@@H](C)CN([C@@H](C)CO)S3(=O)=O)cc1,4.5,i,-4,-27,19
CN1C(=O)c2cc(NC(=O)c3cnccn3)ccc2OC[C@H]2O[C@@H](CC(=O)NCC3CCCCC3)CC[C@H]21,1.3,i,-1,2,0.6
COCC(=O)N1C[C@H]2[C@@H](c3ccccc31)[C@@H](CO)N2C(=O)Nc1ccccc1F,-0.5,i,1,0,-3.1
O=C(c1cccc(S(=O)(=O)N2CCOCC2)c1)N1CCN(c2ncccn2)CC1,-2.7,i,6,24,-0.6
CN(C)C(=O)[C@H]1[C@H](CO)[C@H]2Cn3c(ccc(-c4cccc(F)c4)c3=O)[C@H]2N1C(=O)c1ccccn1,-1.3,i,3,1,1.1
Cc1cccc(-c2ccc([C@@H]3[C@@H](CO)N4C(=O)CN(S(=O)(=O)c5cccc(F)c5)C[C@H]34)cc2)c1,2.4,i,1,-7,19
O=C(NC(c1ccc(-c2ccccc2)cc1)c1cnccn1)C1CCN(Cc2cccs2)CC1 (centres undefined),3.5,i,5,8,4.6
Cc1nc2c(OCc3cc(Cl)cc(Cl)c3)cccn2c1N(C)C(=O)CCC1CCCC1,1.5,i,-1,-2,8.5
C[C@H](CO)N1C[C@H](C)[C@H](CN(C)C(=O)Nc2cccc3ccccc23)Oc2ccc(NC(=O)Nc3ccc4c(c3)OCO4)cc2CC1=O,4.9,i,-3,-4,-2.5
COc1ccc(CNc2nn3c(-c4cccc(C(=O)N(C)C)c4)cnc3s2)cc1,-1.6,i,-7,-22,-1.9
O=C(C[C@H]1CC[C@@H](NC(=O)C2CCC2)[C@H](CO)O1)NCC1CC1,-1.5,i,0,-7,-0.3
COc1ccccc1-c1cnc2c(c1)C(=O)N([C@@H](C)CO)C[C@H](C)[C@H](CN(C)Cc1cncnc1)O2,-2.8,i,1,4,-0.3
COCC#Cc1cnc2c(c1)C(=O)N([C@@H](C)CO)C[C@H](C)[C@H](CN(C)C)O2,-0.8,i,4,15,-1.3
C[C@@H]1CN([C@H](C)CO)C(=O)c2cccc(NC(=O)Nc3ccccc3)c2O[C@@H]1CN(C)S(=O)(=O)c1ccc(Cl)cc1,8.2,i,-20,-17,2.7
O=C(Nc1cccc([N+](=O)[O-])c1)c1ccc([N+](=O)[O-])o1,0.2,i,-53,-80,-18

Compound activity deposited in PubChem BioAssay by Broad Institute.

Only part of the results is shown. The share of hits here may be higher or lower than overall.
